Screens as filed in PubChem BioAssay.
Insulin prom inh = TRM-6 insulin promoter activity inhibition; AID 1273; TRM-6 cells (human fetal islet line), insulin promoter-eGFP reporter, imaging; reporter expression induced with tamoxifen; inhibition, % at 2 µM; hit rate 0.9% among 130,000;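 active = inhibition above the mean plus 3 SD, with well images judged a real hit on visual review, cut at about 60% in these data, passing the limit was not always enough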
PKD1 kinase inh = inhibitors of human PKD1 kinase. hit rate 0.056% among 200,000. inhibition, %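 (about 10 µM by stock and volumes)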. PKD1 kinase fluorescence polarization assay. Q15139;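 active = inhibition of 50% or more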;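 note: controls were vehicle for no effect and a reference inhibitor for full effect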
Target sequence (Q15139 whole entry, looked up): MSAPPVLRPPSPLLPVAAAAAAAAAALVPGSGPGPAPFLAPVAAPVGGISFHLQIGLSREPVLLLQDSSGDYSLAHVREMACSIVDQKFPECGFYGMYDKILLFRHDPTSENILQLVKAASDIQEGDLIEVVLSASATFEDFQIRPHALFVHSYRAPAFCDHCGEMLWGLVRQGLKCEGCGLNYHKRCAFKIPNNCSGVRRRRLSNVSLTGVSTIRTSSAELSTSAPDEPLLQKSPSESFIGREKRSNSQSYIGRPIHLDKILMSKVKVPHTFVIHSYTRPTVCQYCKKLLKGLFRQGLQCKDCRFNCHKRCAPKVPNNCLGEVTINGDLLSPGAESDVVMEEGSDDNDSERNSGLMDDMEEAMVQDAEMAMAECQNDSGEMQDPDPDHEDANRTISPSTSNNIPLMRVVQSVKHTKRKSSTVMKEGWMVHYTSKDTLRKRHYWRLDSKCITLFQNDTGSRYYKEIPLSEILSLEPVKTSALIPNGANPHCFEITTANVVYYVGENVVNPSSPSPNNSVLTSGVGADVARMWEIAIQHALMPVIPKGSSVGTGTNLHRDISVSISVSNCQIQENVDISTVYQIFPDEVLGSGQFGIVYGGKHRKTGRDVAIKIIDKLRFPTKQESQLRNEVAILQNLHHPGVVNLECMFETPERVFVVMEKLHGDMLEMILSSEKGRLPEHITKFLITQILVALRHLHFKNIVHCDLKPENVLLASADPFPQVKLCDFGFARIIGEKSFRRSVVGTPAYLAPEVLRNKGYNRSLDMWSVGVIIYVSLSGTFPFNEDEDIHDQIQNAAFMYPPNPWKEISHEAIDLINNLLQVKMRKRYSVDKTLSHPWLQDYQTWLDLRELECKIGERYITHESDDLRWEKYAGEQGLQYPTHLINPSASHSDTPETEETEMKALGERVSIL
HSV replic up = increases HSV replication in cells; maximum fold increase; hit rate 0.005% among 220,000; AID 1956; HSV replication augmentation in cells, fold increase;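 active = peak rise of 1.5-fold or more in the series; tested in PC3 cells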;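 note: first round at 10 µM; read as green reporter fluorescence; hits show the peak of a series up to 25 µM; 1 = signal of infected wells without compound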
RGS16-Gao = RGS16-Galphao interaction regulator (human). O15492+P09471. bead-based flow cytometry RGS16-Galphao binding, fluorescence; actives lie on both sides. binding response (% of control), % at 10 µM. hit rate 0.38% among 220,000. AID 1441;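 active = below 25% or above 175%, edge rows of some plates excepted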;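 note: Galphao activated by GDP with aluminum fluoride before binding; 100% = wells without compound and 0% = beads without RGS; some results beyond the cut were filed as inactive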
GALR2 ag = activates the human galanin receptor 2; O43603; GALR2-expressing cells, agonist activation read-out; hit rate 0.48% among 140,000; activation, %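 (tested at 5 µM)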;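 active = above mean plus 3 SD of all compounds, about 5% in these data, not always enough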;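 note: 0% = vehicle buffer wells and 100% = reference agonist at full effect; tested in CHO reporter cells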
Insulin prom inh cell count = also measured in Insulin prom inh; calls as there; normalized cell count, %; measured here: cell count, toxicity; reference of the scale not given here;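 cells exposed to compound for 48 h; stained nuclei by imaging scaled within each plate; lower means fewer cells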
HSV replic up primary fold = also measured in HSV replic up; calls as there; fold increase; compound at 10 µM; measured here: primary screen fold increase 10 uM; tested in PC3 cells;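 GFP signal in the first replicate; 1 = infected wells without compound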
Starred values were filed as active, the others as inactive; i = inactive; / = not tested or not shown.

SMILES	Insulin prom inh	Insulin prom inh cell count	PKD1 kinase inh	HSV replic up	HSV replic up primary fold	RGS16-Gao	GALR2 ag
Cn1nc(C(F)(F)F)c(C(=O)Nc2ccc(C(F)(F)F)cc2)c1Cl	-37	130	5	i	0.82	96	-0.6
CCOc1ccccc1Nc1nc(-c2sc(NC(=O)c3ccc([N+](=O)[O-])cc3)nc2C)cs1	27	106	-4	i	1.3	82	-0.6
COc1ccccc1NC(=O)Nc1ccc(Br)cn1	29	98	-5	i	1	110	1.6
CCC(CC)C(=O)Nc1nnc(SCC(=O)N2CCN(c3ccccc3OC)CC2)s1	-82	164	4	i	1.1	99	-0.2
CCNc1nc(Oc2ccc(=O)n(C)n2)nc(N2CCOCC2)n1	-36	191	5	i	0.8	84	-4.2
CC(C)Cn1c(N)c(C(=O)COC(=O)C2CC(=O)N(Cc3ccccc3Cl)C2)c(=O)n(C)c1=O (configuration not stated)	-6	67	-4	i	1.1	110	/
O=C(c1ccccc1)c1cnc(-c2ccccc2)s1	/	/	-6	i	1	109	/
Cc1cc2cc(CNC(=O)c3ccc4c(c3)OCO4)ccc2n1C	-28	130	-13	i	0.84	95	0.1
CCc1nc(N)c(C#N)c(-c2ccc(F)cc2)c1C	12	75	-2	i	1	104	-1.9
Cn1cc(-c2nc3ccccc3[nH]2)c2ccccc21	100*	16*	-8	i	0.9	99	-1.1
O=C(NCc1ccc2c(c1)OCO2)c1cccc(N2CCCC2=O)c1	0	126	14	i	1	108	0.0
COc1ccc(-c2noc(C3CCCN(C(=O)c4ccccc4OC)C3)n2)cc1OC (configuration not stated)	-11	67	0	i	1.1	108	-0.4
C=CCn1c(SCc2ccc(C(=O)NCCO)cc2)nc2sc(C)c(C)c2c1=O	/	/	1	i	0.92	96	/
CCN(CCNC(=O)Cn1cc2c(n1)CCCC2)c1ccccc1	-10	37	-3	i	0.79	107	-0.9
COc1ccc(C2CC3(CC(C)(C)NC(SC)=N3)Oc3cc(O)cc(C)c32)cc1 (configuration not stated)	/	/	-7	i	0.69	107	19*

Sorted by value in PKD1 kinase inh (smallest number first): some entries from above
| mol | PKD1 kinase inh | HSV replic up | HSV replic up primary fold | RGS16-Gao | GALR2 ag |
| --- | --- | --- | --- | --- | --- |
| COc1ccccc1NC(=O)Nc1ccc(Br)cn1 | -5 | i | 1 | 110 | 1.6 |
| CCc1nc(N)c(C#N)c(-c2ccc(F)cc2)c1C | -2 | i | 1 | 104 | -1.9 |
| COc1ccc(-c2noc(C3CCCN(C(=O)c4ccccc4OC)C3)n2)cc1OC (configuration not stated) | 0 | i | 1.1 | 108 | -0.4 |

Additional compounds:
SMILES	Insulin prom inh	Insulin prom inh cell count	PKD1 kinase inh	HSV replic up	HSV replic up primary fold	RGS16-Gao	GALR2 ag
CCN1C(=O)CC(N2CCC(Cc3ccccc3)CC2)C1=O (configuration not stated)	/	/	8	i	0.89	110	-1.3
COc1cccc(CC(=O)NCC2(N3CCCCC3)CCCCC2)c1	25	115	-8	i	0.98	103	/
CCOC(=O)C1=NNC(C(=O)c2ccc(C)cc2)C1c1ccc(OC)cc1 (configuration not stated)	23	107	3	i	0.86	81	0.8
O=C(Nc1ccc(Cl)cc1)N(Cc1nnc2n1CCCCC2)c1ccccc1	6	46	4	i	0.7	100	-2.2
CC(C)Oc1ccc(C(=O)Nc2ccc(C(F)(F)F)n(C)c2=O)cc1	/	/	-8	i	0.96	75	0.3
O=C(CN1C(=O)NC(Cc2ccccc2)C1=O)NC(=O)NC1CCCCC1 (configuration not stated)	/	/	2	i	0.87	101	0.0
Cc1ccc(S(=O)(=O)Cn2nnnc2C(C(C)C)N2CCc3ccccc3C2)cc1 (configuration not stated)	/	/	-12	i	1	83	-1.9
O=C1NC(=O)C(CC(=O)N(Cc2cccs2)C2(C(=O)NC3CCCCC3)CCCCC2)N1 (configuration not stated)	-6	117	-10	i	0.94	109	-1.4
CCOC(=O)C1=C(C)Nc2nc3ccccc3n2C1c1ccncc1 (configuration not stated)	-45	166	-13	i	0.74	97	-0.4
COCc1nnc(NC(=O)c2ccc(S(=O)(=O)N3CCCCCC3)cc2)o1	/	/	-6	i	1.1	94	-2.0
Cn1cc(S(=O)(=O)Oc2ccccc2)c(=O)n(C)c1=O	/	/	4	i	1	95	/
O=C(/C=C/c1ccc(Cl)cc1)NC(=S)Nc1ccc(NC(=O)c2ccco2)cc1	-24	15	-2	i	0.84	70	-2.2
Cc1ccc(Cl)cc1N1CCN(C(c2cccnc2)c2nnnn2C2CCCCC2)CC1 (configuration not stated)	-87	78	-8	i	0.91	104	-1.7
O=C(/C=C/c1ccccc1)N1CCC[C@H]1CO	-143	75	-6	i	0.85	107	-1.9
NC(=O)C1CC(=O)N(c2ccc(OCc3c(F)cccc3Cl)cc2)C1 (configuration not stated)	35	100	1	i	0.77	122	/
CC(C)C(C(=O)Nc1ccc(N2CCOCC2)cc1)N1C(=O)c2ccccc2C1=O (configuration not stated)	/	/	-12	i	1	107	-0.3
COc1ccc(OC)c(NC(=O)CSc2nnnn2-c2ccc3c(c2)OCO3)c1	21	117	-4	i	0.65	89	-2.1
CN(CCC1CCOCC1)Cc1nc(Cc2ccccc2F)no1	-35	150	-2	i	0.98	102	/
CC(C)(C)n1nnnc1C(c1ccncc1)N1CCN(c2ccc(O)cc2)CC1 (configuration not stated)	11	65	-5	i	0.97	98	-2.7
Cc1ccccc1OCC(=O)Nc1ccccc1N1CCOCC1	5	93	-2	i	1.1	106	-0.7
COc1cc(OC)cc(C(=O)N[C@H](C(=O)NCCc2c[nH]c3ccccc23)C(C)C)c1	/	/	-12	i	0.97	99	/
CC(=O)OC(COC1C[C@@H]2CC[C@@]1(C)C2(C)C)C[N+]1(C)CCCCC1 (some centres not stated)	/	/	/	i	1.1	101	/
Cc1ccc2cc(C(c3nnnn3CC3CCCO3)N3CCc4ccccc4C3)c(=O)[nH]c2c1 (configuration not stated)	26	77	-8	i	0.84	96	-1.7
Cn1ccc(O)c(C#N)c1=O	/	/	-2	i	0.74	97	/
CN(C)c1nc2c(c(=O)[nH]c(=O)n2C)n1Cc1ccc(F)cc1	/	/	-1	i	0.9	98	-1.2
CCN(CC)c1ccc(N2C(=O)CSC2=S)cc1	21	110	5	i	0.96	101	/
CCOC(=O)c1c(C)[nH]c(C)c1C(=O)CSc1nnc(-c2cc(OC)c(OC)c(OC)c2)o1	/	/	-5	i	0.87	101	-1.8
O=C(CN1C(=O)/C(=C/c2ccccc2)SC1=S)NNC(=O)c1ccccc1O	/	/	-11	i	0.89	101	/
COc1ccc(Nc2ncnc3sc(-c4ccccc4)cc23)cc1	8	88	-6	i	0.86	100	-2.3
Cc1cc(C)n(C(=O)Cn2nc([N+](=O)[O-])c(Br)c2C)n1	21	181	-1	i	0.83	109	/
Cc1ccccc1OCC(=O)N/N=C/C=C/c1ccccc1	6	98	1	i	0.99	101	/
CCCC12CN(C(=O)c3ccc([N+](=O)[O-])cc3)CC(C)(CN(C(=O)c3ccc([N+](=O)[O-])cc3)C1)C2=O	/	/	/	i	0.94	105	/
Cc1cc(C)nc(SCc2cc(=O)c(OC(=O)c3cc([N+](=O)[O-])ccc3Cl)co2)n1	/	/	-8	i	0.94	90	-0.7
CN(C)/C=N/c1sc2c(c1C#N)CC(C)(C)NC2(C)C	-271	63	0	i	1	/	-2.7
COc1ccc(/C=C/C(=O)c2ccc(NS(=O)(=O)c3ccc(C)cc3)cc2)cc1O	19	139	-3	i	0.73	96	0.2
COc1cccc(NC(=O)c2ccc(C(=O)c3ccccc3)o2)c1	29	118	1	i	0.79	101	/
COc1cc(OC)cc(C(=O)NCC(=O)OCC(=O)Nc2cc(S(C)(=O)=O)ccc2Cl)c1	/	/	/	i	0.97	105	/
NC(=O)CSc1cn(Cc2cccc(F)c2)c2ccccc12	-6	54	-4	i	0.97	96	/
CN1C=CC=C/C1=C1\SC(=S)N(CC(=O)O)C1=O	/	/	-2	i	1	105	/
CC(C)(CCl)C(=O)Nc1ccnc(-c2ccncc2)n1	/	/	2	i	1	99	/
CCOC(=O)c1c(OCCO)nn(-c2ccccc2)c1N	/	/	-6	i	0.91	105	/
Cc1ccc(C(=O)n2ncn(C)c2=S)cc1	/	/	6	i	1	101	/
CCN(CC)CCNCc1ccc(OCc2ccc(Cl)nc2)c(OC)c1	-38	136	0	i	0.87	110	0.2
COP(=O)(OC)C(Nc1ccc(C)cc1)c1ccc([N+](=O)[O-])cc1 (configuration not stated)	-19	95	-10	i	0.97	95	-0.9
CC(C)(C)c1ccc(O)c(N)c1	-61	106	1	i	0.93	97	-0.3

Structures shown so far that have a thiophene ring, fused or not:
SMILES	Insulin prom inh	Insulin prom inh cell count	PKD1 kinase inh	HSV replic up	HSV replic up primary fold	RGS16-Gao	GALR2 ag
C=CCn1c(SCc2ccc(C(=O)NCCO)cc2)nc2sc(C)c(C)c2c1=O	/	/	1	i	0.92	96	/
O=C1NC(=O)C(CC(=O)N(Cc2cccs2)C2(C(=O)NC3CCCCC3)CCCCC2)N1 (configuration not stated)	-6	117	-10	i	0.94	109	-1.4
COc1ccc(Nc2ncnc3sc(-c4ccccc4)cc23)cc1	8	88	-6	i	0.86	100	-2.3
CN(C)/C=N/c1sc2c(c1C#N)CC(C)(C)NC2(C)C	-271	63	0	i	1	/	-2.7

Following part.
SMILES	Insulin prom inh	Insulin prom inh cell count	PKD1 kinase inh	HSV replic up	HSV replic up primary fold	RGS16-Gao	GALR2 ag
O=C(NC1CCSC1=O)c1cccc(C(=O)NC2CCSC2=O)c1 (configuration not stated)	/	/	-2	i	0.98	106	-1.4
CN1CCN(NC(=O)C2CC2)CC1	-30	96	-11	i	0.84	101	-0.7
O=C1CCCN1CCC1CCN(C2CC(=O)N(c3ccc(Cl)cc3)C2=O)CC1 (configuration not stated)	22	131	-8	i	1	97	-0.7
CCC(C)NC(=O)/C(=C/c1ccco1)c1ccccc1 (configuration not stated)	-29	107	-14	i	0.97	102	-0.6
O=c1oc2ccccc2n1Cc1cccc(Cl)c1	/	/	/	i	1	87	/
Cc1c(C=O)c(Cl)n(C)c(=O)c1C#N	/	/	1	i	1.2	102	/
O=C(NCc1ccncc1)c1cc(F)c(F)cc1Cl	25	152	-3	i	0.99	102	/
CC(C)(C)C(=O)N1CCC(O)(CS(=O)(=O)Cc2ccccc2Cl)CC1	10	70	-9	i	0.83	107	-0.8
Cc1cccc(-n2nc([N+](=O)[O-])c(=NC3CCN(Cc4ccccc4)CC3)n2O)c1	/	/	-1	i	0.88	100	/
CC(C)Cn1c(-c2ccco2)csc1=Nc1cccnc1	26	156	2	i	1.1	96	-1.2
O=C1c2ccccc2C(=O)C1Cc1cccc2ccccc12	48	111	-3	i	0.96	115	0.1
CCn1c(=N)c(S(=O)(=O)c2ccc(Cl)cc2)cc2c(=O)n3ccccc3nc21	25	80	-1	i	0.89	105	/
COc1ccc(NC(=O)CN(C)S(=O)(=O)c2ccccc2)cc1	-20	90	5	i	0.95	101	-1.2
COc1cc(-n2nc(C)c3c2OC(N)=C(C#N)C3c2ccccc2)c(Cl)c(Br)c1O (configuration not stated)	68	151	-3	i	0.95	103	-2.5
COc1ccc(Cn2c(C3CCCCC3)nc3c(c(=O)c4ccccc4n3C)c2=O)cc1	/	/	/	i	0.6	104	/
CCOc1ccc(-n2ccnc2SCC(=O)Nc2cc(C)on2)cc1	/	/	-3	i	0.97	100	/
CCCCn1c(/N=C/c2ccccc2NS(=O)(=O)c2ccc(C)cc2)nc2ccccc21	/	/	3	i	1.4	110	-0.8
O=C(CSc1nnc(-c2ccccc2F)n1C1CC1)NC(=O)c1cccc([N+](=O)[O-])c1	/	/	-4	i	0.96	103	0.0
Cc1ccccc1N(CC(=O)Nc1ccccc1C(=O)NCc1ccco1)S(=O)(=O)c1ccccc1	-73	112	-8	i	0.84	102	-1.6
O=C(OCc1nnc(-c2ccccc2)o1)c1cc(Cl)ccc1[N+](=O)[O-]	/	/	-1	i	0.94	98	/
CN(C)/C=C1\C(=O)N(c2ccc(F)cc2F)C(c2cccnc2)S1(=O)=O (configuration not stated)	/	/	/	i	0.93	96	/
COc1ccccc1N=Nc1c(C)noc1C	/	/	/	i	0.96	97	/
COC(=O)CNC(=O)c1ccccc1[N+](=O)[O-]	-43	97	0	i	0.98	/	-2.7
Cc1occc1C(=O)Nc1ccc(S(N)(=O)=O)cc1	/	/	-8	i	0.88	103	/
COc1ccc(-c2csc(NC(=O)c3ccc(S(=O)(=O)N4CCc5ccccc5C4)cc3)n2)c(OC)c1	19	118	-6	i	0.9	101	-2.4
